# Sa helicase inh = blocks Staphylococcus aureus DNA helicase; purified S. aureus helicase, fluorescence unwinding assay; about half of the hits fall short of the stated cut; inhibition, %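 (tested at about 80 µM)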; hit rate 0.05% among 120,000;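 active = both duplicates at 50% or more, or one of them with a favoured structure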;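 also: 0% = mean of negative control wells and 100% = mean of positive control wells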
# MgrA DNA FP = alters Staphylococcus aureus MgrA binding to DNA; fluorescence polarization; inhibition, %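 (about 10 µg/mL by stock and volumes)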; hit rate 0.13% among 84,000;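 active = above 50% in either of two replicates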;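 also: 0% = protein plus DNA without compound and 100% = DNA alone without protein; higher means less MgrA bound to DNA so lower polarization; one replicate is shown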
# An asterisk follows results filed as active; · = not tested or not shown. This is a subset; rates above refer to the full screens.
no.	molecule	Sa helicase inh	MgrA DNA FP
1	O=C1C=CC(=O)N1c1cc(Cl)cc(Cl)c1	·	-15
2	CC(=O)N1CCN(c2ccc(NC(=O)COc3ccc4ccccc4c3)cc2)CC1	10	0.6
3	O=C(c1cnc2n(c1=O)CCS2)N(Cc1ccccc1)c1ccccc1	0	·
4	NNC(=O)CS(=O)(=O)c1ccc(C(F)(F)F)cn1	·	-0.9
5	CC(C)N(Cc1nnc(-c2ccccc2Cl)o1)C(=O)CCN1C(=O)NC2(CCCC2)C1=O	7	·
6	COc1ccc2c(c1)OC13CCCCC1C2C(C(=O)c1ccccc1)C(=O)N3 (configuration not stated)	-1	0.5
7	CCC(C)c1ccc(N=C(NO)c2ccc(OC)cc2)cc1 (configuration not stated)	-19	1.3
8	CC1CC(C)CN(C(c2ccccc2)c2sc3ncnn3c2O)C1 (configuration not stated)	27	·
9	CC(C)CCN1CC(C(=O)NC2CCCCCC2)CC1=O (configuration not stated)	3	-2.0
10	C=CCN1C(=S)NC2CC1(C)Oc1c(OCC)cccc12 (configuration not stated)	-27	·
11	COC(=O)c1ccc(-c2csc(C)n2)s1	·	-1.6
12	CCOC(=O)C1=C(C)N=c2s/c(=C\c3cc(Br)c(O)c(OC)c3)c(=O)n2C1c1ccc(OC)cc1 (configuration not stated)	·	2.6
13	COC(=O)c1c(CC=C(C)C)c(C)nc2ccccc12	3	-1.8
14	N#C/C=C/N1CCc2ccccc2C1	18	·
15	CCN1CCN(C(=O)c2ccc(Br)o2)CC1	-29	0.3
16	O=C(CSCc1ccc(Cl)cc1)c1ccccc1F	1	-0.1
17	COc1ccc(NC(=O)CC2(CC(=O)O)CCCCC2)cc1OC	·	-0.6
18	Cc1nc(-c2cccc(NC(=O)CN3CCN(S(=O)(=O)Cc4ccccc4)CC3)c2)cs1	-9	·
19	O=C1CC(c2ccco2)CC2=C1C(c1ccc(Cl)cc1)n1ncnc1N2 (configuration not stated)	-1	-3.2
20	CC1CCCCN1C(=O)Nc1c[nH]c2ccccc12 (configuration not stated)	6	·
21	Cc1c(-c2ccccc2)nnn1-c1ccc(F)c(Cl)c1	·	-0.2
22	Cc1cccc(C)c1NC(=O)CC(C(=O)O)N(C)C (configuration not stated)	-13	·
23	Cc1ccc2c(c1)-c1c(cnn1CC(=O)Nc1ccc(S(=O)(=O)N3CCCCC3)cc1)CO2	-13	·
24	O=C(c1cccc(Cl)c1)c1nnc(-c2ccccc2)o1	12	·
25	COC(=O)C1=C(C)N(C)C(=O)N(C)C1c1ccc(O)cc1 (configuration not stated)	0	-3.0
26	O=c1[nH]ncc(N2CCCCCC2)c1Cl	11	0.8
27	CCOc1ccc(OCCBr)cc1	-3	-0.3
28	O=C1CSC(c2ccc([N+](=O)[O-])cc2)N1c1ccc(Oc2ccccc2)cc1 (configuration not stated)	·	3.9
29	COc1cc(Br)cc2cc(C(=O)N3CCN(c4ccccn4)CC3)c(=O)oc12	21	-1.2
30	COc1ccccc1N1C(=O)C(Cc2ccccc2)N=C1N1CCC(C)CC1 (configuration not stated)	1	·

# The closing 2 compounds of the part before lead into the next:
no.	molecule	Sa helicase inh	MgrA DNA FP
29	COc1cc(Br)cc2cc(C(=O)N3CCN(c4ccccn4)CC3)c(=O)oc12	21	-1.2
30	COc1ccccc1N1C(=O)C(Cc2ccccc2)N=C1N1CCC(C)CC1 (configuration not stated)	1	·
31	CCOC(=O)C1C(=O)C=C(c2cccs2)CC1c1ccc(OC)c(OC)c1Cl (configuration not stated)	·	1.8
32	CC1(C)OC(=O)N(c2ccccc2)/C1=C\C[N+](C)(C)C	0	1.1
33	CC(=O)N1CCCc2cc(S(=O)(=O)NCc3ccc4c(c3)OCO4)ccc21	6	·
34	O=C(Nc1cccnc1)OCC(F)(F)F	5	·
35	COC(=O)CSc1ccc2c(N)c(C(=O)OC)sc2c1	17	0.7
36	Cc1cc(=O)[nH]c(NC(=O)C2CC2)n1	·	1.0
37	CCC(C)NC(=O)COc1ccc(Br)c(C)c1 (configuration not stated)	9	0.6
38	CCOC(=O)c1oc2ccccc2c1CBr	20	-2.1
39	O=C(c1ccc(N2CCOCC2)nc1)N1CCOCC1	·	1.7
40	COc1cccc(-c2nnn(CC(=O)N3CCCC3)n2)c1	-5	·
41	Cc1ccc(S(=O)Cc2ccc(C(=O)NC3CCCC(C)C3C)o2)cc1 (configuration not stated)	-11	·
42	Clc1ccc(OCCN2CCNCC2)cc1	15	-1.0
43	CC1OC(C)C(C)C(c2ccccc2O)O1 (configuration not stated)	8	-0.6
44	Cc1nnc(Nc2cccc(F)c2)s1	·	-2.5
45	N#C/C=N/N(c1ccccc1)c1ccccc1	-10	·
46	O=C(O)c1ccccc1NC(=O)C(F)(F)F	·	-4.2
47	COC(=O)c1c(C)nn(C(C)=O)c1COc1ccccc1	·	1.6
48	C=CCn1c(CNC(=O)c2ccccc2)n[nH]c1=S	12	-2.0
49	Cc1cc(C)cc(NC(=O)Cc2noc3ccc(C)cc23)c1	-4	·
50	CCN1CCN(Cc2ccc(NC(=O)c3cc4ccc5cccnc5c4[nH]3)cc2)CC1	91*	·
51	COC(=O)C1=NNC(c2ccccc2)(c2ccccc2)C1	-4	-1.4
52	CCOC1(OCC)N=C(N)C2(C#N)C(c3ccccc3F)C12C#N (configuration not stated)	30	·
53	O=C(NCc1ccc(F)cc1)c1ccc(S(=O)(=O)N2CCCC2)cc1	-1	·
54	O=C1CCCC2=C1C(c1ccc(F)cc1)c1c([nH]c(=O)[nH]c1=O)N2 (configuration not stated)	7	1.5
55	COC(=O)C1CCC(C)(C(=O)O)C1(C)C (configuration not stated)	·	-2.3
56	O=C(CSc1nc2ccccc2o1)NC1Cc2ccccc2C1	·	-1.2
57	CC1CN(C(=O)C(C)C)CC(C)O1 (configuration not stated)	5	-1.5
58	c1ccc2cc(-c3cc4ccccc4[nH]3)ccc2c1	·	-4.3
59	COC(=O)CSC1=C(C#N)C(c2cccs2)C(C(=O)Nc2ccccc2C)=C(C)N1 (configuration not stated)	18	·
60	Cc1cc2c(cc1C)CN(c1ccccc1)C2	·	-0.7

# Entries of single compounds as entered above.
# c1ccc2cc(-c3cc4ccccc4[nH]3)ccc2c1 reads Sa helicase inh = ·; MgrA DNA FP = -4.3
# CCC(C)NC(=O)COc1ccc(Br)c(C)c1 (configuration not stated) reads Sa helicase inh = 9; MgrA DNA FP = 0.6

# In a second layout: results already given.
[43] CC1OC(C)C(C)C(c2ccccc2O)O1 (configuration not stated)
  Sa helicase inh = 8
  MgrA DNA FP = -0.6
[44] Cc1nnc(Nc2cccc(F)c2)s1
  Sa helicase inh = ·
  MgrA DNA FP = -2.5

# Continuation.
no.	molecule	Sa helicase inh	MgrA DNA FP
61	CC(C)Cc1ccc(C(C)c2nc(-c3cccs3)no2)cc1 (configuration not stated)	·	-2.1
62	COc1ccc(Br)cc1CNc1ccc(N2CCOCC2)cc1	15	-7.9
63	COC(=O)C1CC(C)=CC(C)C1C(=O)O (configuration not stated)	6	7.0
64	COc1ccc(/C=C/C(=O)Nc2ccc(-n3nncc3-c3ccc(OC)c(OC)c3)cc2)cc1OC	0	1.1
65	CCNC(=O)CCn1nc(-c2ccccc2)c2ccccc2c1=O	-18	2.6
66	O=C(NCc1cccc(C(F)(F)F)c1)c1ccc[nH]1	·	-0.7
67	COCCCN1C(=Nc2cccnc2)SCC1(O)c1ccccc1 (configuration not stated)	4	·
68	O=C1C=CC(=O)N1c1ccc(S(=O)(=O)Nc2ccc(C(F)(F)F)cc2)cc1	·	23
69	Cc1ccc(CN2CCN(N=Cc3ccccc3OCC(=O)O)CC2)c(C)c1	30	·
70	N#CSCCCOc1ccccc1Br	-1	-0.3
71	O=C(O)Cn1ncc2c3ccccc3n(Cc3cccc(Cl)c3)c2c1=O	-37	7.9
72	COc1ccc(CNC(=O)C(CC(=O)N2CCOCC2)n2ccnc2)cc1 (configuration not stated)	-5	·
73	Cc1ccc2cc(CN3CCN(C)CC3)c(Cl)nc2c1C	3	·
74	O=C1CCC(C(=O)N2CCc3ccccc32)=NN1	5	·
75	Cc1ccc2c(c1)N(CC(=O)NC1CCC(C)CC1)C(=O)c1cccnc1O2 (configuration not stated)	11	·
76	O=C(CCc1c[nH]c2ccccc12)Nc1cccnc1	20	·
77	O=C(c1ccccc1)C1C(=O)c2ccccc2C1=O	3	·
78	Cc1cc(C)c2c3c(sc2n1)C(=O)N(c1ccccc1C)CC(=O)N3	·	6.3
79	Cc1cc(C(F)(F)F)nn1CC(=O)N1CCCCC1	-3	1.7
80	CCOc1cc(C2C(C(=O)OC)=C(C)NC3=C2C(=O)CC(c2ccccc2)C3)cc(Br)c1O (configuration not stated)	·	2.5
81	CC1(C)CC(=O)C2=C(C1)Nc1ccccc1N(C(=S)NCc1ccco1)C2c1cccnc1 (configuration not stated)	4	0.8
82	CC(C)c1ccc(CN(C(=O)c2nc(S(C)(=O)=O)ncc2Cl)C2CCS(=O)(=O)C2)cc1 (configuration not stated)	-4	5.0
83	CCONC(=O)Nc1ccccc1	7	·
84	O=C(NC1CCCCC1)NC1CCCc2ccccc21 (configuration not stated)	6	0.3
85	CCOC(=O)NC(=O)c1cn(CCc2ccncc2)c(=O)[nH]c1=O	·	-4.5
86	COc1ccc(N(C=O)/C=C2\Sc3ccccc3C2=O)cc1	-79	7.8
87	O=C(CSc1nc2ccccc2[nH]c1=O)Nc1ccccc1	8	·
88	O=c1[nH]c2ccc(S(=O)(=O)Nc3ccc4c(c3)OCO4)cc2[nH]c1=O	23	·
89	CC(=O)NC(CC(=O)N1CCN(S(=O)(=O)c2ccc(C)cc2)CC1)c1ccccc1 (configuration not stated)	-5	·
90	Cc1ccc(C(=O)OCC(=O)NCc2ccccc2Cl)s1	-17	1.1
91	CC(C)C(=O)Nc1ccc(Sc2ccc(F)cc2)cc1	·	1.4
92	O=C(C1CCC1)N1CCN(c2ccccc2)CC1	11	3.0
93	Cc1cc2ncn(S(=O)(=O)c3ccc(S(=O)(=O)N(C)C)cc3)c2cc1C	3	-0.2
94	CC(C)[C@H](NC(=O)c1ccccc1)C(=O)Nc1ccc2c(c1)OCO2	8	·
95	COc1ccc(CCN2C(=O)CSC2=NC2CC2)cc1OC	·	2.5
96	Clc1ccccc1CSc1nncn1NCc1ccccc1	0	-1.1
97	CCOc1ccc(CNC(=O)COc2cc(=O)n(CC)c3ccccc23)cc1	17	-0.8
98	CCOC(=O)c1cnn(-c2ccccc2)c1-c1ccccc1	·	1.6
99	O=c1[nH]c2ccccc2c(-c2ccccc2)c1Sc1nc2ccccc2o1	3	·
100	CC(Oc1ccc(Cl)cc1Cl)C(=O)N1CCC(C(N)=O)CC1 (configuration not stated)	4	0.5
101	Cc1cccc(NC(=O)CSc2nsc(SCC(=O)Nc3cccc(C)c3)c2C#N)c1	1	1.5
102	Cc1cc(-c2ccc(C(C)C)cc2)n(-c2ccccn2)n1	8	·
103	Cc1ccc(N2C(=O)Nc3ccc(Br)cc3C2(O)C(=O)N2CCN(c3ccccn3)CC2)cc1C (configuration not stated)	-7	·
104	CCOc1ccccc1C1C(C(=O)OCCOC)=C(C)NC2=C1C(=O)CC(c1ccc(Cl)cc1)C2 (configuration not stated)	·	-0.2
105	O=C(NCCCn1ccnc1)c1cc2nc(-c3ccccc3)cc(-c3ccccc3)n2n1	16	-0.1
106	CN1CCc2c(sc3[nH]c(=O)c4c(=S)nc(-c5ccco5)[nH]c4c23)C1	2	7.5
107	Cc1ccc(S(=O)(=O)N2CCC[C@H]2C(=O)OCN2C(=O)c3ccccc3C2=O)cc1	22	·
108	CCc1cc2c(SCC(=O)c3ccc(Cl)s3)ncnc2s1	-19	·
109	COC(CNC(=O)c1ccc(CS(=O)(=O)c2ccccc2)o1)OC	-14	·
110	C#CCOc1ccc(Cl)c2cccnc12	-8	-0.8
111	COc1ccc(N=C2C(=O)Nc3ccc(Br)cc32)cc1	11	·
112	O=C(c1ccc(-c2cccs2)s1)N1CCOCC1	24	·
113	CC(C)NC(=O)c1cc(-c2ccccc2)on1	0	-1.6
114	O=C1CC(c2ccc(Cl)cc2)N=C(NC(=O)c2ccc3c(c2)OCO3)N1 (configuration not stated)	-8	·
115	CC(=O)CCCNc1nc(-c2ccc(Cl)cc2)cs1	·	1.8
116	O=C1c2ccccc2C(O)(Cc2ccccc2)N1Cc1ccccc1 (configuration not stated)	10	-0.6
117	Cc1ccc2c(CN3C(=O)CCC3=O)cc(=O)oc2c1	14	·
118	Cc1ccc(-n2c(O)c(/C=N/c3ccnn3Cc3ccco3)c3ccccc3c2=O)cc1	-23	·
119	CC1(C)NC(=O)N(CC(O)COc2ccc(N3C(=O)c4ccccc4C3=O)cc2)C1=O (configuration not stated)	-7	3.6
120	Clc1cccc(NCn2nnc3ccccc32)c1Cl	-11	-0.2

# Six compounds out of the list above, sorted by their value in Sa helicase inh, descending:
no. | mol | Sa helicase inh
97 | CCOc1ccc(CNC(=O)COc2cc(=O)n(CC)c3ccccc23)cc1 | 17
117 | Cc1ccc2c(CN3C(=O)CCC3=O)cc(=O)oc2c1 | 14
92 | O=C(C1CCC1)N1CCN(c2ccccc2)CC1 | 11
116 | O=C1c2ccccc2C(O)(Cc2ccccc2)N1Cc1ccccc1 (configuration not stated) | 10
102 | Cc1cc(-c2ccc(C(C)C)cc2)n(-c2ccccn2)n1 | 8
119 | CC1(C)NC(=O)N(CC(O)COc2ccc(N3C(=O)c4ccccc4C3=O)cc2)C1=O (configuration not stated) | -7

# (listing goes on)
no.	molecule	Sa helicase inh	MgrA DNA FP
121	CC(O)c1nc2ccccc2n1Cc1ccccc1F (configuration not stated)	13	·
122	Cc1nc(N2CCCCC2)c2c(C)c(C(=O)Nc3cccc(C(F)(F)F)c3)sc2n1	2	-0.1
123	COc1cc(C(=O)Nc2ccc3oc(-c4ccccc4Cl)nc3c2)cc(OC)c1OC	·	-1.6
124	O=S(=O)(Nc1cccnc1)c1cc(Cl)sc1Cl	·	-0.1
125	COc1ccc2c(Sc3ccc(Cl)cc3)c(C(=O)NCCCN3CCN(C)CC3)[nH]c2c1	-4	5.9
